Source: PubChem
Autofluor counter – flagged as autofluorescent in microsphere protease counterscreen; compound autofluorescence counterscreen, microsphere flow cytometry; active compounds read high; fluorescence intensity (test concentration not listed); hit rate 3.1% among 360,000; AID 624483;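 active means at least 3 SD above the mean of all compounds, about 16000 in these data; inconclusive means too few beads counted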;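 further: 100 nL of 1 mM stock went into each well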
Mtb hypoxia rep – PubChem AID 1159583; M. tuberculosis hypoxia-regulated fluorescent reporter, fluorescence; fluorescence inhibition, % (test concentration not listed); hit rate 0.1% among 300,000;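 active means 35 to 45% if threefold the growth effect, above 45% if 1.5-fold the growth effect; inactive means the rest, general growth blockers included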;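 further: wells of about 50 µL received 100 nL stock; 0% = vehicle wells and 100% = reference inhibitor wells; whole bacteria with a GFP reporter of the hypoxia response; strong numbers were not always called active; many hits fall short of the cut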
PrP 5UTR inh – inhibition of PrP 5' UTR reporter expression | cell-based PrP 5' UTR mRNA reporter, plate reader | inhibition, % (concentration not given with the values) | hit rate 0.35% among 340,000 | AID 488862, 2010;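 active means every replicate at 50% or more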;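 further: 0 = median of the neutral control wells; tested in H4 reporter cells; numbers are from one replicate; inactives centre near -14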
BJeLR viability – MLPCN primary cell-based screen for lethality selective to Ras in HRASV12 cells; inhibition, % (test concentration not listed); BJeLR (HRASV12) viability, CellTiter-Glo ATP luminescence, 48 h; reference of the scale not given here; hit rate 0.17% among 300,000;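 active means replicate mean above 50%; inconclusive means above 50% but judged a plate artefact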;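 further: 50 nL library stock added to about 25 µL; numbers are from one replicate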
ugtP null kill – growth inhibition of ugtP-null S. aureus, primary screen, RN4220 ugtP deletion, OD600; 16 h; some inactives read as strong as hits; growth inhibition, % (test concentration not listed); hit rate 0.54% among 330,000; AID 1259309, 2017;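 active means z-score under -3 and OD600 up to 0.15 on both plates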;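 further: plate controls were untreated wells for no effect and antibiotic for full effect; wells of about 80 µL received 100 nL stock; the first replicate is given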
RN4220 kill – growth inhibition of S. aureus RN4220, primary screen, OD600 | 16 h | inhibition, % (concentration not given with the values) | hit rate 0.33% among 330,000 | AID 1259311, 2017;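 active means z-score of -3 or lower and OD600 up to 0.18 on both plates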;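 further: plate controls were untreated cells for no effect and reference antibiotic for full effect; stock transfer was 100 nL into about 80 µL; one replicate is shown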
Mtb hypoxia rep growth – also measured in Mtb hypoxia rep; calls as there; growth inhibition, %; measured here: M. tuberculosis growth (absorbance);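 0% = vehicle and 100% = reference antibiotic; read after six days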
Starred values were filed as active, the others as inactive; ? = inconclusive; / = no result given.

SMILES	Autofluor counter	Mtb hypoxia rep	Mtb hypoxia rep growth	PrP 5UTR inh	BJeLR viability	ugtP null kill	RN4220 kill
CC1Nc2ncnc(N3CCN(c4ccccc4)CC3)c2N(Cc2ccccc2)C1=O (stereo unspecified)	3541	0	3	-27	1	3	5.0
O=C(NN=Cc1ccco1)C(O)c1ccccc1 (stereo unspecified)	/	7	4	/	/	15	3.3
COc1cc(C(=O)Nc2sc3c(c2C(=O)O)CCC3)cc(OC)c1OC	3833	12	1	-25	0	2	3.9
Cc1ccc(-n2ncc3c2CCCC3NC(=O)CCn2ccnc2C)cc1C (stereo unspecified)	5654	-3	9	-17	-8	3	1.9
CC(C)Cc1ccc(C(C)C(=O)OCC(=O)c2c[nH]c3ccccc23)cc1 (stereo unspecified)	11396	5	8	-14	-1	24	1.7
CCn1cc(C(=O)NCCCO)c(=O)c2cc(F)c(N3CCN(C)CC3)cc21	3869	0	3	-6	1	71	34
Cc1cc(NC(=O)CSc2nc3cc(C)c(C)cc3cc2C)no1	5932	-5	8	0	-15	9	-1.1
CC1CCN(C(=O)c2ncn(C)c2C(=O)N2CCC(C)CC2)CC1	3991	7	0	-7	/	-7	4.1
COc1cccc(-c2nc(CS(=O)CC(=O)NCc3ccccc3)c(C)o2)c1 (stereo unspecified)	5554	4	14	2	-2	-4	-9.4
N#C/C(=C\c1c(Oc2ccc(Cl)cc2)nc2ccccn2c1=O)C(=O)NC1CCS(=O)(=O)C1 (stereo unspecified)	3970	8	-3	-21	9	-1	-0.2
COc1ccc(CNCCS(=O)(=O)NN2CCOCC2)cc1	3896	0	6	-10	/	0	3.9
CC(CC(=O)Nc1ccc(S(=O)(=O)Nc2ncccn2)cc1)c1ccccc1 (stereo unspecified)	3563	7	8	-41	-4	11	-0.3
CCOC(=O)c1cnc(-n2nc(C)cc2C)nc1NCc1ccccc1	?	1	18	3	7	-13	8.2
CCOc1cc(N2CCOCC2)c(OCC)cc1NC(=O)c1ccc(F)c(S(=O)(=O)N2CCOCC2)c1	6063	-1	-16	-18	/	2	2.4
O=c1c2ccccc2nc(-c2ccccc2Cl)n1-c1ccc(O)cc1	3006	11	2	-12	-12	-1	4.0
O=C(Nc1ccc(Cl)cn1)c1cc2ccccc2o1	2537	/	/	-125	-4	-4	-4.2
COc1cc(/C=C/CN2CCN(Cc3ccc(C)o3)C(CCO)C2)ccc1O (stereo unspecified)	3397	-7	1	55*	12	14	5.4
CC(C)OC(=O)/C(=C\C=C\c1ccccc1)NC(=O)c1ccccc1	3380	/	/	9	-2	/	/
O=C(O)C1CCCN1S(=O)(=O)c1cc(Cl)ccc1Cl (stereo unspecified)	7480	10	15	-38	-2	1	5.8
COc1cc(/C=N/NC(=O)c2ccc(CSc3nncn3C)cc2)cc(OC)c1O	3387	/	/	-33	-22	/	/
CN(C(=O)CCc1nc2ccccc2s1)c1ccccc1	10692	2	4	-29	-5	-2	4.7
COc1ccc(N/C=C2\C(=O)CCc3c2oc2cc(Cl)c(O)c(Cl)c32)cc1	3921	11	2	-27	-5	1	11
Cc1ccc(-c2c(C(=O)O)c3ccccc3[nH]c2=O)cc1	4413	12	1	-19	0	1	3.7
c1ccc(NC2=Nc3ccccc3CC2)cc1	3018	-15	-12	-68	2	-3	-18
COc1ccc(NC(=O)NNC(=O)COc2ccc3cc(Br)ccc3c2)c(OC)c1	5767	0	5	-21	-7	6	8.8
CCCCN(C(=O)CSc1nnc(-c2ccco2)o1)c1c(N)n(Cc2ccccc2)c(=O)[nH]c1=O	4580	-2	-2	-18	7	6	0.5
Cc1ccc(NC(=O)CCNS(=O)(=O)c2ccccc2)c(C(=O)c2ccccc2)c1	1955	/	/	-12	7	-1	2.3
O=C(O)COc1ccccc1C=NNC(=O)c1cc(-c2ccccc2)nc2ccccc12	/	-10	10	/	/	14	8.7
O=C(OCc1nnc(-c2ccc(Cl)cc2)o1)C12CC3CC(CC(O)(C3)C1)C2	5072	15	4	-24	0	9	14
O=C(CSCc1c(F)cccc1Cl)NCCc1ccccc1	/	6	0	-20	1	1	0.1
CN1CCc2nc(NC(=O)c3cccc(OC(F)F)c3)sc2C1	3371	9	9	-36	-2	-2	7.6
CCN(Cc1ccc(OC)c(F)c1)C(=O)CCl	4227	/	/	-10	6	0	2.0
Cc1c(C(=O)O)nn(-c2cccc(C(F)(F)F)c2)c(=O)c1C#N	3647	2	17	-24	24	4	1.0
CC1CC(C)CN(C(=O)c2ccc(S(=O)(=O)N3CCCCC3)cc2)C1 (stereo unspecified)	5882	-2	5	-13	-3	-7	-3.9
CN(C(=O)c1cccc(N2C(=O)C3CC=CCC3C2=O)c1)C1CCCCC1 (stereo unspecified)	10978	5	2	-21	-6	-9	7.4
CCOC(=O)c1c(S(=O)(=O)NCC(=O)Nc2ccc(C)cc2)c(C)n(C)c1C	6048	12	7	-19	-2	10	0.2
Cn1nccc1C(=O)N1CCN(c2ccc(F)cc2)CC1	8421	12	4	-10	-3	7	6.0
Cc1ccc(NC(=O)C2CC(=O)N/C(=N/N=Cc3ccco3)S2)cc1 (stereo unspecified)	/	3	3	/	/	-6	3.8
COc1ccc(/C=C/C(=O)C2CC2)cc1COc1c(C)cccc1C	4429	8	11	11	1	24	-1.5
Cc1ccc(C(C)NC(=O)c2cccs2)cc1C (stereo unspecified)	4401	/	/	-6	-9	9	2.1
Cc1ccc(S(=O)(=O)Nc2cccc(-c3ccc(N4CCCCCC4)nn3)c2)cc1C	4745	0	-6	-57	0	-4	-1.5
COc1ccc(OCc2cc(C(=O)N3C[C@H]4CC[C@H]3C4)no2)c(Cl)c1	?	/	/	-29	-18	/	/
Cc1ccc(S(=O)(=O)N2CC(O)C[C@H]2C(=O)OCC(=O)c2ccccc2)cc1 (stereo partly specified)	2799	7	1	-22	-18	8	4.1
Cc1cccc(NS(=O)(=O)c2cccc(C(=O)NCC3(N4CCCCC4)CCCCC3)c2)c1	4718	6	-3	0	7	20	4.7
Cn1nc(C(F)(F)F)c(C=NOCc2c(Cl)cccc2Cl)c1Cl	/	1	1	/	/	93*	3.7
O=C(CN1CCCC1)N1CCCc2ccccc21	4215	3	1	-23	-8	3	2.3
COc1cccc(CNC(=O)c2cccc(S(=O)(=O)N3CCN(C)CC3)c2)c1	4528	-6	-8	2	-5	3	3.0
Cc1ccc(S(=O)(=O)Nc2ccc(C(N)=O)cc2)cc1[N+](=O)[O-]	4126	-2	3	-20	4	3	4.3
COC(=O)c1c(NC(=O)c2ccccc2C(=O)O)sc2c1CCC2	4195	3	4	-39	7	4	3.9
Cc1cccc(NC(=O)/C(C#N)=C/c2ccc[nH]2)c1C	6276	15	5	-22	13	1	2.4

Next section.
SMILES	Autofluor counter	Mtb hypoxia rep	Mtb hypoxia rep growth	PrP 5UTR inh	BJeLR viability	ugtP null kill	RN4220 kill
CCOc1ccccc1N(CC(=O)NC1CCCCC1)C(=O)CCC(=O)Nc1cc(C)ccn1	3600	16	2	-22	-8	-3	3.9
O=C(NCc1ccco1)c1cccn2c(=O)c3c4c(sc3nc12)CCCC4	4208	-76	0	-19	1	-1	2.2
Cc1cc(C)nc(NN=Cc2cccc(Cl)c2)n1	/	1	11	/	/	4	0.5
CC(=O)NCCC(=O)Nc1cc(S(=O)(=O)N2CCOCC2)ccc1N1CCCC1	6892	3	6	-14	-2	-4	0.1
CC(CNC(=O)COC(=O)c1cccnc1Cl)c1ccccc1 (stereo unspecified)	4555	8	8	-9	/	8	1.1
COc1ccc(/C=C/C(=O)Nc2ccccc2C(=O)O)cc1	4347	4	12	-28	-4	28	14
CC(=NC(C)C)C1=C(O)CCC1=O	2393	12	1	-12	-5	1	2.9
O=C(O)CCSC(=S)N1CCOCC1	4546	12	2	-23	-5	1	1.4
N#CC1=C(N)Oc2cc3ccccc3cc2C1c1cccs1 (stereo unspecified)	4519	1	5	1	-11	-8	0.0
O=C(NCCc1c[nH]c2ccccc12)C1CCC(Cn2c(=S)[nH]c3ccccc3c2=O)CC1 (stereo unspecified)	6056	-4	8	2	-6	-42	-7.7
CC(=O)Oc1cc2oc(=O)c3c(c2cc1Cl)CCC3	11997	8	3	-30	-3	7	7.2
Cc1ccc(N(CC(=O)N/N=C/c2ccc(OC3CSC3)cc2)S(=O)(=O)c2ccccc2)cc1	6115	/	/	-33	-3	/	/
CCOC(=O)c1c(N=CC2=C(O)CCCC2=O)sc2c1CCCC2	/	-4	10	/	/	-3	1.1
Cc1ccnc(N2CCC(C(=O)Nc3ccc(Oc4ccccc4)cc3)CC2)n1	9104	/	/	-23	1	/	/
CCOc1cc(CNCCCN2CCOCC2)cc(Cl)c1OCC(=O)NC(C)(C)C	3306	18	4	-12	1	4	3.8
CC(CC(=O)Nc1ccc2c(c1)OCCO2)=NNC(=O)C(=O)Nc1ccccc1C	/	0	16	/	/	3	2.7
CCOC(=O)c1ccccc1NC(=O)COC(=O)C(CCSC)NC(=O)COc1ccccc1 (stereo unspecified)	6436	-4	7	-2	5	-2	8.2
O=C(Oc1ccc(-c2cnc3ccccc3n2)cc1)c1ccc(Br)o1	8009	7	2	-78	-6	-1	11
CCOC(=O)C1CCCN(c2c(C(=O)c3ccccc3)cnc3ccc(OC)cc23)C1 (stereo unspecified)	5624	/	/	-16	-11	12	2.1
CCOC(=O)c1oc2ccccc2c1NC(=O)COc1cccc(OC)c1	10784	5	13	-12	4	-17	1.5
CCOc1ccc(-c2c(C#N)c(N)nc3sc(C(=O)c4ccccc4)c(N)c23)cc1	4289	/	/	-10	-1	/	/
CCn1c(=N)n(CC(O)c2ccco2)c2ccccc21 (stereo unspecified)	28325*	-11	-9	-2	6	-3	-0.3
CCCCNc1ccc(S(=O)(=O)c2cccc([N+](=O)[O-])c2)cc1[N+](=O)[O-]	2460	15	10	-41	-12	11	0.9
O=C(O)c1cc(Cl)c(Cl)cc1C(=O)N1CCCC1	7356	14	-3	4	13	10	4.0
C/C(CCC(=O)O)=N/Nc1ccc([N+](=O)[O-])cc1[N+](=O)[O-]	7964	/	/	-15	-9	/	/
O=C1CN(S(=O)(=O)c2cccc(Br)c2)CCN1	3752	15	8	-101	/	1	5.1
Cc1cc(NS(=O)(=O)c2ccc(NC(=S)Nc3ccc(Cl)cc3C)cc2)no1	3820	/	/	-38	-7	9	-0.2
COc1ccc(/C=N/Nc2cc(C)nc3ccc(OC)cc23)c(OC)c1	3260	/	/	-7	21	/	/
CCC(C)C(NC(=O)Nc1ccc(S(N)(=O)=O)cc1)C(=O)O (stereo unspecified)	/	5	10	/	/	-5	4.0
CC(C)(C)NC(=O)CSc1ccc(C(C)(C)C)cc1	4375	1	1	-16	8	6	4.8
COc1ccc(/C=C/C(=O)OCC(=O)NCCC2=CCCCC2)cc1OC	3590	3	8	-6	2	-1	1.1
C=CCn1c(NC(=O)c2ccc(Br)o2)c(C(=O)OCC)sc1=S	11110	4	8	4	21	-6	21
CC(OC(=O)/C=C/c1ccc2ccccc2n1)C(=O)N(C)c1ccccc1 (stereo unspecified)	4933	4	1	-14	/	0	1.7
O=C(OCC(=O)N1CCCC1)c1cccs1	3050	3	6	-11	4	-2	0.5
CC1CCN(C(=O)CSc2nc3ncccc3[nH]2)CC1	5693	2	0	-18	2	-1	2.8
COc1ccc(-c2cc(C(=O)N3CCCCCC3)c3cc(C)ccc3n2)cc1	5781	10	11	-11	-1	-2	2.1
COc1ccccc1NS(=O)(=O)c1cc(NC(=O)c2cccc(S(=O)(=O)N(C)C)c2)ccc1N1CCOCC1	6093	2	1	6	/	3	0.4

An excerpt of these results, with two lines to a compound.
Results follow in this order: Autofluor counter | Mtb hypoxia rep | Mtb hypoxia rep growth | PrP 5UTR inh | BJeLR viability | ugtP null kill | RN4220 kill
- CC(OC(=O)/C=C/c1ccc2ccccc2n1)C(=O)N(C)c1ccccc1 (stereo unspecified)
 : 4933 | 4 | 1 | -14 | / | 0 | 1.7
- O=C(OCC(=O)N1CCCC1)c1cccs1
 : 3050 | 3 | 6 | -11 | 4 | -2 | 0.5
- CC1CCN(C(=O)CSc2nc3ncccc3[nH]2)CC1
 : 5693 | 2 | 0 | -18 | 2 | -1 | 2.8
- COc1ccc(-c2cc(C(=O)N3CCCCCC3)c3cc(C)ccc3n2)cc1
 : 5781 | 10 | 11 | -11 | -1 | -2 | 2.1
- COc1ccccc1NS(=O)(=O)c1cc(NC(=O)c2cccc(S(=O)(=O)N(C)C)c2)ccc1N1CCOCC1
 : 6093 | 2 | 1 | 6 | / | 3 | 0.4
